Compound activity as filed in PubChem BioAssay.
CapD inh: inhibitors of Bacillus anthracis CapD enzyme | purified CapD enzyme, fluorescence intensity read-out; active compounds read low; some hits fall short of the stated cut | z-score (concentration not given with the values) | 140,000 compounds, 0.23% hits;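 active = z-score under -4 in either of two replicates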;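 also: stock transfer was 100 nL into about 40 µL; score is relative to mean and spread of the plate; one replicate is shown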
AID504770: E. coli YBA685 growth inhibition, screen for V. cholerae RctB inhibitors; E. coli YBA685 rctB-dependent plasmid, OD600 growth, 3 h; active compounds read low; z-score (concentration not given with the values); 130,000 compounds, 0.27% hits; AID 504770;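 active = z-score under -2 on both plates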;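 also: wells of about 30 µL received 100 nL stock; score is relative to mean and SD of the test wells; the first replicate is given; strong numbers were not always called active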
Starred values were filed as active, the others as inactive; . = no result given.

mol: CCc1ccc(C2(C)CC(C)(C)N(C(=O)CN3C(=O)c4ccccc4C3=O)c3ccccc32)cc1 (centres undefined)
  CapD inh = 0.31
  AID504770 = .

mol: CCC(=O)N1c2ccccc2NC2=C(C(=O)CC(C)(C)C2)C1CC1CC=C(C)C1(C)C (centres undefined)
  CapD inh = 12.2
  AID504770 = -0.3

mol: O=C(CSc1n[nH]c(-c2ccccc2)n1)c1cccs1
  CapD inh = .
  AID504770 = 0.1

mol: CCOC(=O)CSc1nc2sc3c(c2c(=O)n1-c1ccc(OC)cc1)CCC3
  CapD inh = -0.68
  AID504770 = .

mol: Cc1nnc(SCC(=O)NC2CCCCC2)o1
  CapD inh = .
  AID504770 = -0.45

mol: O=C1CSc2ccc(C(=O)N3CCc4ccccc43)cc2N1
  CapD inh = .
  AID504770 = -0.75

mol: Cc1c(C(=O)NN=C2CCCCCC2)nnn1-c1nonc1N
  CapD inh = .
  AID504770 = 0.75

mol: COc1cccc(OCC(O)Cn2c(Cc3ccccc3)nc3ccccc32)c1 (centres undefined)
  CapD inh = -0.245
  AID504770 = -0.65

mol: CCCn1c(SCc2nc(N)nc(Nc3ccccc3CC)n2)n[nH]c1=O
  CapD inh = .
  AID504770 = -0.05

mol: O=C(NCc1ccccc1)C1CCN(Cc2cnn(-c3ccccc3)c2-n2cccc2)CC1
  CapD inh = 0
  AID504770 = -0.9

mol: CN1/C(=C\C=N\NC(=O)Cn2cncn2)C(C)(C)c2ccccc21
  CapD inh = .
  AID504770 = -0.2

mol: CSc1cc(/C=N/O)c(SC)s1
  CapD inh = -0.29
  AID504770 = -0.95

mol: CC(C)N1C(=O)S/C(=C/c2cc(Br)c(OCC(=O)O)c(Br)c2)C1=O
  CapD inh = -0.655
  AID504770 = -0.7

mol: O=C(NCc1ccc2c(c1)CCO2)c1cc(F)cc2c1OCOC2
  CapD inh = 3.24
  AID504770 = -0.55

mol: CS(=O)(=O)N1CCC2(CC1)OCCN2S(=O)(=O)c1ccccc1
  CapD inh = .
  AID504770 = 0.35

mol: O=S1(=O)CC2SC(=S)N(CC3CCCO3)C2C1 (centres undefined)
  CapD inh = .
  AID504770 = -0.4

mol: COc1cccc(C2=NN3C(C2)c2cccc(OC)c2OC3c2cccc(Cl)c2)c1 (centres undefined)
  CapD inh = -0.025
  AID504770 = .

mol: CC(OC(=O)C(c1ccccc1)c1ccccc1)C(=O)N1CCN(C(=O)c2ccco2)CC1 (centres undefined)
  CapD inh = .
  AID504770 = 0.85

mol: O=C(O)CCC1CCCC(CCC(=O)O)C1=O (centres undefined)
  CapD inh = 0.465
  AID504770 = .

mol: NC(=O)c1cc(S(=O)(=O)N2CCCC2)cs1
  CapD inh = -0.39
  AID504770 = 0.25

mol: O=C(c1cccc(C(F)(F)F)c1)N1CCC(N(C2CC2)S(=O)(=O)c2ccc(Cl)cc2)CC1
  CapD inh = -0.505
  AID504770 = .

mol: Cc1cc(O)cc(O)c1C(=O)Cc1cscn1
  CapD inh = .
  AID504770 = -0.9

mol: CC(=O)Nc1ccc(N)cc1
  CapD inh = .
  AID504770 = 1.3

mol: Cc1cc(NC(=O)N(C)C)nn1-c1ccccc1
  CapD inh = 0.155
  AID504770 = -0.95

Single records, from the list above. Order of screens: CapD inh	AID504770
O=C(c1cccc(C(F)(F)F)c1)N1CCC(N(C2CC2)S(=O)(=O)c2ccc(Cl)cc2)CC1 reads -0.505	.
O=C(CSc1n[nH]c(-c2ccccc2)n1)c1cccs1 reads .	0.1
COc1cccc(C2=NN3C(C2)c2cccc(OC)c2OC3c2cccc(Cl)c2)c1 (centres undefined) reads -0.025	.
CC(C)N1C(=O)S/C(=C/c2cc(Br)c(OCC(=O)O)c(Br)c2)C1=O reads -0.655	-0.7

Copied from the list:
CapD inh, CCC(=O)N1c2ccccc2NC2=C(C(=O)CC(C)(C)C2)C1CC1CC=C(C)C1(C)C (centres undefined) = 12.2
AID504770, O=C(CSc1n[nH]c(-c2ccccc2)n1)c1cccs1 = 0.1
CapD inh, COc1cccc(C2=NN3C(C2)c2cccc(OC)c2OC3c2cccc(Cl)c2)c1 (centres undefined) = -0.025
AID504770, NC(=O)c1cc(S(=O)(=O)N2CCCC2)cs1 = 0.25
AID504770, Cc1cc(O)cc(O)c1C(=O)Cc1cscn1 = -0.9
